# LANA-H2B inh – blocks KSHV LANA binding to histone H2A/H2B | Q9QR71 | cell-free LANA-H2A/H2B peptide, fluorescence polarization | inhibition, % (test concentration not listed) | 320,000 tested, 0.6% active; in the data active means inhibition mostly above about 10%, no sharp cut-off; inactive means mostly below about 6.7%;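 further: stock transfer was 7.5 nL into about 10 µL; 0% = median of vehicle wells and 100% = median of positive control wells; one replicate is shown; the record names a cut of 25% in any replicate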
# Target sequence (Q9QR71 whole entry, looked up): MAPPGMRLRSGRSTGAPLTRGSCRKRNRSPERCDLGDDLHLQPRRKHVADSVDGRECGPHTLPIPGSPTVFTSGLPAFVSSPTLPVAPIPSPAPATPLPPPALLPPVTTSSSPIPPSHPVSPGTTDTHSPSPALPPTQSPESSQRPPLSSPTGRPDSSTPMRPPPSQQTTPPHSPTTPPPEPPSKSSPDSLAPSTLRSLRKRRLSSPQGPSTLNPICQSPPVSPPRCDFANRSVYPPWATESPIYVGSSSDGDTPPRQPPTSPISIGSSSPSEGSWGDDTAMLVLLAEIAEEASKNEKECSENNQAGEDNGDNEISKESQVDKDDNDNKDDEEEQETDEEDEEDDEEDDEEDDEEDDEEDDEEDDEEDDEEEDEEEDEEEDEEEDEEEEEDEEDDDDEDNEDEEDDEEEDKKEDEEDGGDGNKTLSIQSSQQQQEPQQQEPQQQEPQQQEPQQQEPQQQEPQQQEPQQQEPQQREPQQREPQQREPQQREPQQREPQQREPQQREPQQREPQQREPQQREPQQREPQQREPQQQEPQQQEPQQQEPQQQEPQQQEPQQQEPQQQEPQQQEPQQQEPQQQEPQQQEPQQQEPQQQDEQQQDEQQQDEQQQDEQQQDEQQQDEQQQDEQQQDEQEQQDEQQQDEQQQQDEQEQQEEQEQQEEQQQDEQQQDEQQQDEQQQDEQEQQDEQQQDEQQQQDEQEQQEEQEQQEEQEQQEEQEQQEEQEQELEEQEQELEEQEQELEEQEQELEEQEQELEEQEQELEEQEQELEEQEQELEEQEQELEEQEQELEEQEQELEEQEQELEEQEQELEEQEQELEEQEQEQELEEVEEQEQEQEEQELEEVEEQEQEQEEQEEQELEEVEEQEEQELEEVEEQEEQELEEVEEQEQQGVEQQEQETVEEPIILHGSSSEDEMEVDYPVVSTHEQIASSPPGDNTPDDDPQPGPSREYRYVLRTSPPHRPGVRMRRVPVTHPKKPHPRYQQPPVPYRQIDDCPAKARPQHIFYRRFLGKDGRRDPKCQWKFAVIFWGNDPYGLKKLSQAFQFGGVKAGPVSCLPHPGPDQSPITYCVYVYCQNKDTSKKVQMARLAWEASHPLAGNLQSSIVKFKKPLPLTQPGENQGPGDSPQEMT
# MLL AF4-AF9 inh – MLL-AF4/AF9 protein interaction inhibition; AlphaScreen, biotin-AF4 peptide binding to FLAG-AF9; inhibition, % at 10 µM; 350,000 tested, 0.47% active; AID 651704;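 active means every replicate reaching a set inhibition limit, whatever the replicate mean, cut at about 25% in these data; inconclusive means mean inhibition reaches that limit but some replicates miss it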;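 further: 0% = plate neutral control median and 100% = total signal loss; the record names both 10 and 1 µM as test concentration; the first replicate is given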
# T cruzi inh – T. cruzi replication inhibition; T. cruzi beta-gal in NIH3T3, luminescence, 90 h; 300,000 tested, 1.4% active; AID 1885; inhibition, % (no concentration beside the values);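 active means mean inhibition across valid replicates above about 55%, limit read from the data; inconclusive means mean below that limit but half or more replicates reach it; inactive means mean below it, under half of replicates reach it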;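 further: signal also drops with host cell toxicity which is not excluded here; 0% = plate median of DMSO wells and 100% = zero luminescence signal; higher percent means less beta-gal luminescence so fewer parasites; stock transfer was 50 nL into about 50 µL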
# Beta apoptosis – beta cell apoptosis inhibition; 300,000 tested, 0.8% active; AID 435005; INS-1E cytokine-induced death, ATP luminescence, 48 h; percent of positive-control rescue, neutral wells zero; protection from apoptosis, % (concentration not given with the values);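 active means all replicates at 75% or more, or half of them and the mean; inconclusive means half reach 75% but not the mean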;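 further: 0% = cytokine-treated negative control wells and 100% = positive control rescue; higher means more ATP so stronger rescue from cytokine killing; wells of about 40 µL received 100 nL stock; the first replicate is given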
# Vif A3G – HIV-1 Vif–A3G interaction blockers – biochemical, TR-FRET, GST-Vif 1-94, biotin-A3G peptide, dose response retest, primary screen (AID 1117319). TR-FRET GST-Vif / biotin-A3G peptide binding; higher % means a stronger effect; test concentration not given here; strong numbers were not always called active. inhibition, %, or IC50 in µM where a hit was titrated. 260,000 tested, 0.57% active;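 active means above the screen mean plus three standard deviations and confirmed in dose response; inconclusive means results disagree or hit not tested in dose response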;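 further: Vif residues 1-94 fused to GST binding biotinylated APOBEC3G peptide 110-148; 0% = full assay without inhibitor and 100% = GST in place of GST-Vif; retest series ran down from 100 µM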
# A1 inh – inhibitors of the anti-apoptotic protein A1, read as caspase activation | 330,000 tested, 0.066% active | AID 2462 | MEF A1-2A-BIM cells, Caspase-Glo 3/7 luminescence, 3 h; percent of clofoctol response, vehicle zero | caspase activation, % (test concentration not listed);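 active means over half of replicate activation scores above 10%, or exactly half above 10 with the replicate mean above 10; inconclusive means replicate mean below 10 yet half the replicates above 10; inactive means over half of replicates below 10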;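 further: wells of about 30 µL received 50 nL stock; many hits fall short of the cut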
# RanGTP-Imp inh – inhibitors of RanGTP-importin-beta interaction, primary screen, biochemical, FRET, CFP-Ran, YFP-importin-beta, homogeneous. cell-free CFP-Ran/YFP-importin-beta FRET ratio. inhibition, % (no concentration beside the values). 300,000 tested, 1.1% active;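 active means most replicates above 15%; inconclusive means exactly half above 15%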;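 further: 0% = DMSO wells and 100% = Ran loaded with GDP instead of GTP; wells of about 40 µL received 100 nL stock; the first replicate is given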
# Calb FLC – affects C. albicans growth with fluconazole; C. albicans CaCi-2 (fluconazole-resistant clinical isolate) + fluconazole, Alamar Blue growth, 48 h; growth inhibition, % (test concentration not listed); 300,000 tested, 0.57% active;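 active means most replicates above 75%; inconclusive means exactly half above 75%; inactive means most below 75%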;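 further: all wells also contain fluconazole at 8 µg/ml as a sub-toxic cotreatment; 0% = median of DMSO wells and 100% = median of geldanamycin control wells; wells of about 8 µL received 7.5 nL stock; the first replicate is given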
# The depositor's hits bear a star; ? = inconclusive; / = not tested or not shown; & = joins results of further samples.
1) Oc1ccccc1-c1nnc(SCCN2CCOCC2)n1Cc1ccccc1
2) O=C(/C=C/c1ccco1)NC(=S)Nc1nc(-c2ccc(Cl)cc2)cs1
3) Cc1c(C(=O)Nc2cccnc2)oc2ccc(Br)cc12
4) COc1cc2cc(C(=O)Nc3ccccc3)c(N)nc2cc1OC
5) COC(C[C@@H]1O[C@H]1[C@@H](O)COCc1ccccc1)OC
6) O=C(CSc1nc(-c2cccs2)cc(C(F)(F)F)n1)Nc1cc(OCC(F)(F)C(F)F)cc([N+](=O)[O-])c1
7) O=C(/C=C\c1cccs1)c1c(O)ccc2ccc(=O)oc12
8) C=CCNC(=O)CN1N=C(c2ccc(C)cc2)CCC1=O

entry no.,1,2,3,4,5,6,7,8
LANA-H2B inh,-0.1,-0.8,-4.9,14,/,-2.4,2.2,2.0
MLL AF4-AF9 inh,/,0.6,1.7,/,11,/,/,-15
T cruzi inh,-4,-5,10,27,-16,14,-21,-10
Beta apoptosis,60,-2,2,0,/,21,-12,-6
Vif A3G,5%,5%,-1%,4%,8%,/,-14%,-1%
A1 inh,0.0,0.8,-4.8,0.1,/,-0.2,0.2,0.7
RanGTP-Imp inh,-1.2,-2.9,1.5,29*,-0.8,-1.1,1.6,-5.1
Calb FLC,7,-3,26,6,-9,11,1,6

9) CCN(CC)C(=O)Cn1c(=O)n(-c2ccccc2)c(=O)c2sccc21
10) CCN(CCn1cccn1)C(=O)c1cccc(OC2CCN(S(C)(=O)=O)CC2)c1
11) Cc1ccccc1-n1c(SCc2cccc(F)c2)nc2[nH]ncc2c1=O
12) CNC(=S)NNC(=O)COc1ccc(C)c(C)c1
13) Cc1ccc(C)c(/C=N/Nc2nc3ccccc3c(=O)n2O)c1
14) Cc1csc(NC(=O)/C=C/c2ccc(C)o2)n1
15) Cc1ccc(C(=O)Nc2ccc(N3CCN(C(=O)c4ccco4)CC3)cc2)cc1
16) NC(=O)Cn1nc([N+](=O)[O-])nc1Oc1ccccc1F

entry no.,9,10,11,12,13,14,15,16
LANA-H2B inh,0.8,-1.2,-3.0,2.7,-1.1,1.6,-1.7,-5.0
MLL AF4-AF9 inh,1.4,1.3,/,-1.5,5.5,/,-1.8,-1.9
T cruzi inh,-11,-24,-6,-15,-1,-2,10,47
Beta apoptosis,-1,-6,-2,-2,/,0,6,-2
Vif A3G,3%,-2%,/,/,-14%,?,13%,10%
A1 inh,0.6,0.4,0.6,0.0,-0.1,-0.8,0.9,-0.4
RanGTP-Imp inh,-2.3,-2.4,-2.5,8.0,0.4,-0.7,-5.9,-2.5
Calb FLC,6,-16,-5,12,?,-5,-6,5

17) O=S(=O)(NC1CC1)c1ccc(Cl)cc1
18) COc1ccc(-c2nc(C)ncc2N=Nc2ccccc2)cc1
19) Cc1c(Br)cc(C(=O)N2CCCC2)c(C)c1C
20) Cc1cc(=O)c(C(=O)c2ccccc2)c(C)o1
21) CCN1CCN(C(=O)NC2CCCCC2)CC1
22) CC(=O)NS(=O)(=O)c1ccc(NC(=O)c2ccc3c(c2)C(=O)N(CCC(C)C)C3=O)cc1
23) O=C(CCc1nc2ccccc2s1)NC1CCOC1=O (stereo not drawn)
24) COC(=O)[C@H](CCSC)NC(=O)Cn1ccc(N)nc1=O

entry no.,17,18,19,20,21,22,23,24
LANA-H2B inh,1.6,3.7,6.2,-3.0,-2.1,-1.6,0.0,3.4
MLL AF4-AF9 inh,-1.2,/,/,-4.4,-9.1,/,-17,3.1
T cruzi inh,-9,21,1,-10,-8,-6,-13,/
Beta apoptosis,4,3,/,/,-8,-3,-4,-3
Vif A3G,/,8%,6%,/,/,22%,/,/
A1 inh,-1.2,-0.9,0.1,0.0,0.8,0.3,0.6,0.9
RanGTP-Imp inh,1.0,0.0,5.0,3.0,5.2,0.0,1.5,/
Calb FLC,3,-18,7,-2,44,12,0,/

25) Cc1cc(C)cc(NC(=S)NCc2cccn2C)c1
26) C=CCC1(CC=C)CCCN1C(=O)C1CCC(=O)N(CCc2ccc(OC)cc2)C1 (stereo not drawn)
27) CS(=O)(=O)c1cccc(C(=O)Oc2ccccc2)c1
28) COc1ccc(S(=O)(=O)N2CCOCC2)cc1NC(=O)COc1ccc(C)cc1
29) O=C(NCCC1=CCCCC1)c1c(O)nc2ccccn2c1=O
30) Cc1cccc(NCCNc2cccc(C)c2)c1
31) Cc1nc(-c2ccccc2)cc(=O)[nH]1
32) CC(OC(=O)c1c(F)cccc1F)C(=O)NCCC1=CCCCC1 (stereo not drawn)

entry no.,25,26,27,28,29,30,31,32
LANA-H2B inh,5.2,-3.6,38*,7.7,-1.0,0.2,4.4,-1.0
MLL AF4-AF9 inh,13,0.4,/,-0.3,-0.7,/,/,-2.5
T cruzi inh,4,-12,-4,/,0,-6,-8,/
Beta apoptosis,-2,29,-5,3,-2,2,-1,-3
Vif A3G,-3%,/,0%,3%,/,-4%,23%,1%
A1 inh,0.4,-0.5,-0.1,-0.2,-0.7,-0.5,0.9,0.3
RanGTP-Imp inh,4.0,0.1,-1.8,/,0.8,-1.6,4.5,/
Calb FLC,9,-14,-14,/,2,-9,4,/

33) Cc1ccc(-c2cc(NC(=O)CCl)n(-c3ccccc3)n2)cc1
34) COCCCN(C(=S)Nc1cc(Cl)cc(Cl)c1)C(C)c1ccccn1 (stereo not drawn)
35) CC(=O)N1c2ccccc2Oc2cc3ccccc3cc21
36) Cc1cc(NC(=O)CSc2nc3ccsc3c(=O)n2CCCC(=O)NCCc2ccccc2)no1
37) CNCc1c(OCc2ccccc2)ccc2ccccc12
38) CN(C(=O)c1cc2c(=O)n3ccccc3nc2s1)C1CCCCC1
39) O=C(Oc1ccc(-c2nnco2)cc1)N(c1ccccc1)c1ccccc1
40) CC1CN(CC(=O)N2CCc3[nH]c4ccccc4c3C2)CC(C)O1 (stereo not drawn)

entry no.,33,34,35,36,37,38,39,40
LANA-H2B inh,2.3,0.7,2.5,-2.8,0.2,-5.4,-0.2,-4.3
MLL AF4-AF9 inh,/,2.9,/,-2.0,2.4,-7.0,/,/
T cruzi inh,4,6,2,6,18,2,5,8
Beta apoptosis,-16,-4,4,2,6,2,2,-6
Vif A3G,1%,-9%,/,9%,/,/,2%,0%
A1 inh,1.7,-0.3,-0.2,-0.4,-0.2,-6.5,1.0,-0.2
RanGTP-Imp inh,-0.1,2.7,-0.5,-0.4,-0.6,2.4,-4.6,28*
Calb FLC,-3,-2,4,6,-2,-7,11,-1

# One compound at a time (already shown). Values in the order: LANA-H2B inh, MLL AF4-AF9 inh, T cruzi inh, Beta apoptosis, Vif A3G, A1 inh, RanGTP-Imp inh, Calb FLC
# Listed for Cc1ccc(-c2cc(NC(=O)CCl)n(-c3ccccc3)n2)cc1 = 2.3, /, 4, -16, 1%, 1.7, -0.1, -3
# Listed for CC1CN(CC(=O)N2CCc3[nH]c4ccccc4c3C2)CC(C)O1 (stereo not drawn) = -4.3, /, 8, -6, 0%, -0.2, 28*, -1
# Listed for Cc1cc(NC(=O)CSc2nc3ccsc3c(=O)n2CCCC(=O)NCCc2ccccc2)no1 = -2.8, -2.0, 6, 2, 9%, -0.4, -0.4, 6
# Listed for COCCCN(C(=S)Nc1cc(Cl)cc(Cl)c1)C(C)c1ccccn1 (stereo not drawn) = 0.7, 2.9, 6, -4, -9%, -0.3, 2.7, -2
# Listed for CC(=O)N1c2ccccc2Oc2cc3ccccc3cc21 = 2.5, /, 2, 4, /, -0.2, -0.5, 4

# Later entries
41) CCOc1ccc(N=C2SC(C(=O)Nc3ccccc3C#N)C(N)=C2C(=O)Nc2ccc(Cl)cc2)cc1 (stereo not drawn)
42) COc1ccc(CCN=CC2=C(O)CC(C)(C)CC2=O)cc1
43) C/C(=C(\C#N)C(=O)NCCCN1CCOCC1)N(C)C
44) COc1ccc(NC(=O)c2cn3c(nc4ccccc43)c(C#N)c2C)cc1
45) CCN1CCN(c2nc(Nc3cccc(C)c3)nc(N)c2[N+](=O)[O-])CC1
46) COCCSc1nnc(NC(=O)C(C)(C)C)s1
47) CCn1ncc(S(=O)(=O)N2CCN(c3cccc(OC)c3)CC2)c1C
48) CCOC(=O)Cn1cnc2scc(-c3ccccc3)c2c1=O

entry no.,41,42,43,44,45,46,47,48
LANA-H2B inh,-4.7,1.8,2.0,-11,1.5,43*,4.1,2.4
MLL AF4-AF9 inh,-1.1,1.4,/,-2.5,/,/,0.4,-6.7
T cruzi inh,13,-13,-2,4,-49,19,-6,-6
Beta apoptosis,5,-3,-4,5,-16,0,-2,6
Vif A3G,-6%,-4%,-5%,-10%,5%,-2%,3%,/
A1 inh,-0.8,0.2,1.0,0.0,-0.1,0.2,0.0,-0.2
RanGTP-Imp inh,3.0,-4.6,4.0,5.0,3.3,-1.8,/,3.2
Calb FLC,-8,-14,1,-3,-11,-10,/,-2

49) O=C(Cc1c(F)cccc1Cl)NNC(=O)Nc1ccc2c(c1)OCO2
50) N#CCCN(C(=O)COC(=O)CCC(=O)c1ccc(F)cc1)c1ccccc1
51) Cc1ccc(-c2nnn(CC(=O)N(CC(=O)NC3CCCC3)c3cnc4ccccc4c3)n2)o1
52) Cn1c2ccccc2c2nnc(SCC(=O)NC3CC3)nc21
53) Cc1cc(Br)ccc1S(=O)(=O)NCc1ccccc1
54) CCN1CCN(C(c2cccs2)C(C)NC(=O)c2cccnc2)CC1 (stereo not drawn)
55) COc1cc(NC(=S)NC(=O)c2ccc(C)cc2C)ccc1NC(=O)c1cccs1
56) O=S(=O)(c1cccc(Cn2nnc(-c3ccc(F)cc3)n2)c1)N1CCOCC1

entry no.,49,50,51,52,53,54,55,56
LANA-H2B inh,-1.3,3.8,-7.2,-0.1,0.6,16,-1.9,-7.2
MLL AF4-AF9 inh,-0.3,0.5,/,-0.4,1.0,/,/,0.1
T cruzi inh,5,/,12,10,-13,5,-4,19
Beta apoptosis,-6,-2,-12,4,1,-2,3,33
Vif A3G,-2%,1%,18%&-12%,/,/,-2%,1%,1%
A1 inh,0.2,0.2,-0.7,0.2,-0.4,0.6,-0.1,0.0
RanGTP-Imp inh,-0.3,/,2.1,2.4,-1.0,-1.4,2.1,5.7
Calb FLC,6,/,-4,-4,-3,-19,0,2

57) Cn1c(=O)c2c(nc(CN3CCOCC3)n2CCc2ccccc2)n(C)c1=O
58) CC(C)CC(OC(=O)c1nsc(Cl)c1Cl)C(=O)NC1CCCC1 (stereo not drawn)
59) COc1ccc(CNc2ccc(-c3ccccc3OC)nn2)cc1
60) CC(NC(=O)CCCn1cc([N+](=O)[O-])cn1)c1ccccc1 (stereo not drawn)

entry no.,57,58,59,60
LANA-H2B inh,3.3,1.9,-1.8,-3.3
MLL AF4-AF9 inh,/,-0.1,/,-1.6
T cruzi inh,-4,-10,8,-6
Beta apoptosis,1,-6,3,-4
Vif A3G,29%,/,-1%,3%
A1 inh,-0.4,1.1,-0.7,1.0
RanGTP-Imp inh,-2.5,-1.8,-2.6,-0.6
Calb FLC,-4,-9,-19,1

# Source: PubChem BioAssay (several laboratories)
